Assay outcomes deposited in PubChem BioAssay by several laboratories.
CSC inhib: blocks cancer stem cells; cancer stem cell-like cells viability, luminescence; inhibition, % at 7.5 µM; 300,000 tested, 1.1% active; AID 2717;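 active means mean at 75% or more and at least half the replicates too; inconclusive means mean and replicates disagree; tested in HMLE shEcad cells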;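 further: 0% = median of negative and 100% = median of positive control wells; the first replicate is given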
PABP FP inh: blocks human PABP binding to poly(A) RNA. AID 2014. 290,000 tested, 1% active. fluorescence polarization. inhibition, % at 35 µM;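 active means 50% or more with normal probe brightness, or confirmed in later tests; inconclusive means above 50% with abnormal brightness, or retests that disagree; inactive means below 50% or failed in later tests; about a fifth of its hits are not listed in these tables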;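 further: calls also rest on retests at 20 µM and on dose response follow-up; controls were probe without protein and protein plus probe with vehicle; some compounds called inactive have numbers as strong as hits; many hits fall short of the cut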
Rce1 inh: yeast Ras-converting enzyme inhibition | Q03530 | yeast membranes, quenched prenylated peptide cleavage fluorescence | calls only | 290,000 tested, 0.27% active;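 active means fall in fluorescence gain of 50% or more versus controls, with final raw signal at or below 3038400; inconclusive means same 50% fall but final raw signal above 3038400; inactive means fall in fluorescence gain under 50%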;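 further: plate controls were neutral control wells for no effect and wells lacking membranes for full effect; tested at 10 µM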
Target sequence (Q03530 whole entry, looked up): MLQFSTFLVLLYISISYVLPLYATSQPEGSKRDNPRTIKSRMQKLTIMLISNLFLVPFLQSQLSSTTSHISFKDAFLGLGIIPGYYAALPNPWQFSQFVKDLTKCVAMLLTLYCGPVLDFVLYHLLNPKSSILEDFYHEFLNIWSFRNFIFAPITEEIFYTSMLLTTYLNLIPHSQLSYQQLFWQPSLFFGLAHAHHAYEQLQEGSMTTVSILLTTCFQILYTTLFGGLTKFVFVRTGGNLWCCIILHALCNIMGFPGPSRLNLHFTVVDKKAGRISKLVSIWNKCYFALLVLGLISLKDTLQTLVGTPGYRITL
HIV Env fusion: blocks HIV Env-driven cell-cell fusion. 360,000 tested, 1.1% active. inhibition, % at 12.3 µM. HeLa-JRFL Env/CEM21 cell fusion, luciferase;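 active means mean replicate inhibition score of at least 50 and every replicate individually at or above 50; inconclusive means only one of the two criteria met; inactive means mean below 50 and not all replicates reaching 50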;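 further: 0% = plate neutral controls and 100% = maraviroc near 300 nM; one replicate is shown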
Yeast UUG start: yeast start codon fidelity modulation; activity score, % at 18.7 µM; 350,000 tested, 0.13% active; S. cerevisiae UUG-firefly luciferase reporter, luminescence/redox ratio;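 active means replicate mean at a twofold rise or more, about +100% in these data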;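 further: firefly luciferase made from a UUG start codon reports start codon fidelity; reporter light over untreated wells divided by growth signal over untreated wells; some hits fall short of that in this replicate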
eIF4H FP inh: inhibitors of RNA binding by human eIF4H | eIF4H fluorescence polarization binding assay | inhibition, % at 35 µM | 290,000 tested, 0.94% active;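 active means 50% or more with normal probe brightness, or confirmed in later tests; inconclusive means above 50% with abnormal brightness, or retests that disagree; inactive means below 50% or failed in later tests; about a fifth of its hits are not listed in these tables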;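 further: calls also rest on retests at 20 µM and on dose response follow-up; 0% = protein and probe with vehicle and 100% = probe without protein; strong numbers were not always called active; many hits fall short of the cut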
MT1-MMP act inh: MT1-MMP (human) activation inhibition; P50281; HT1080 RFP-PRO-GFP cells, GFP/RFP ratio fluorescence, overnight; percent of plate control window, DMSO zero; GFP/RFP ratio change, % at 20 µM; 360,000 tested, 0.061% active;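 active means GFP/RFP ratio change of at least 30% with cell ATP level not reduced by more than half and red fluorescence within 50% of control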; further: strong numbers were not always called active
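Assay system – RFP-PRO-GFP reporter HT1080 cells · Compound dosing – single dose of 20 µM compound, 1% DMSO final · Incubation – overnight compound exposure at 37 °C · Measure – GFP/RFP fluorescence ratio · Benchmarks – DMSO wells and RFP-L50D-GFP cells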
MT1-MMP act inh RFP: second read-out of MT1-MMP act inh, no call of its own (marks repeat the call); RFP signal change, %; measured here: RFP expression control read;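 0 = vehicle wells; hits needed this value within 50% of zero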
The depositor's hits bear a star; & = joins results of further samples.

What do the screens show for `CCOc1ccc(NC(=S)N2CCN(C/C=C/c3ccccc3)CC2)cc1`?
CSC inhib: 5; PABP FP inh: 0; HIV Env fusion: 21; eIF4H FP inh: -14; MT1-MMP act inh: -4; MT1-MMP act inh RFP: -6

How did CS(=O)(=O)N(CC(=O)N1CCOCC1)c1ccc2c3c(cccc13)CC2 do in these assays?
CSC inhib: 7; PABP FP inh: 0; Rce1 inh: inactive; HIV Env fusion: -51; Yeast UUG start: 4; eIF4H FP inh: 16; MT1-MMP act inh: -1; MT1-MMP act inh RFP: 11

Results for Cc1ccc(S(=O)(=O)N(C)C)cc1NC(=O)C(C)N(C)Cc1sccc1C (configuration not stated) ?
CSC inhib: 16; PABP FP inh: 1; Rce1 inh: inactive; HIV Env fusion: -1; Yeast UUG start: -22; eIF4H FP inh: -9; MT1-MMP act inh: 0; MT1-MMP act inh RFP: -23

What do the screens show for `O=C(Nc1cc(Sc2nc3ccccc3s2)cc([N+](=O)[O-])c1)c1cccc(F)c1F`?
CSC inhib: 48; PABP FP inh: 5; Rce1 inh: inactive; Yeast UUG start: -11; eIF4H FP inh: -3; MT1-MMP act inh: 1; MT1-MMP act inh RFP: -7

What do the screens show for `COc1ccc(S(=O)(=O)N2CCCCC2)cc1NC(=O)c1cccc(S(=O)(=O)N2CC(C)OC(C)C2)c1` (configuration not stated)?
HIV Env fusion: 9; Yeast UUG start: -8; MT1-MMP act inh: -2; MT1-MMP act inh RFP: -8

What do the screens show for `COc1ccccc1N1CC(C(=O)Nc2ccc(C)c(S(=O)(=O)N3CCOCC3)c2)CC1=O` (configuration not stated)?
CSC inhib: -6; HIV Env fusion: 2; Yeast UUG start: -4; MT1-MMP act inh: 1; MT1-MMP act inh RFP: 2

What do the screens show for `CCOC(=O)C[C@H]1c2cc(F)ccc2S(=O)(=O)N1c1ccccc1`?
CSC inhib: -6; Rce1 inh: inactive; HIV Env fusion: 11; Yeast UUG start: -17; MT1-MMP act inh: 2; MT1-MMP act inh RFP: 0

What do the screens show for `CCc1cc2ccc(C)c(C)c2nc1SCC(=O)Nc1cc(C)on1`?
CSC inhib: 27; PABP FP inh: 4; Rce1 inh: inactive; HIV Env fusion: 13; Yeast UUG start: -3; eIF4H FP inh: -7; MT1-MMP act inh: 0; MT1-MMP act inh RFP: -2

How did OC1CCC(NC(=S)Nc2ccc(SC(F)F)cc2)CC1 (configuration not stated) do in these assays?
CSC inhib: -8; PABP FP inh: -10; Rce1 inh: inactive; HIV Env fusion: -26; eIF4H FP inh: -5; MT1-MMP act inh: -1; MT1-MMP act inh RFP: 2

How did Cc1nc(SCc2nc3ccc(C(=O)c4ccccc4)cc3[nH]2)c2oc3ccccc3c2n1 do in these assays?
HIV Env fusion: -28; Yeast UUG start: -16; MT1-MMP act inh: -1; MT1-MMP act inh RFP: -5

Results for CC[C@@H]1[C@H]2CCCC(=O)N3CC[C@@H](C[C@@H]1Nc1ccccc1)[C@@H]23 ?
CSC inhib: -3; PABP FP inh: -6; Rce1 inh: inactive; HIV Env fusion: -3; Yeast UUG start: -3; eIF4H FP inh: -1; MT1-MMP act inh: -2; MT1-MMP act inh RFP: 1

Results for CC(C)=CCC/C(C)=C/CNC(=O)C[C@H]1C[C@H](C(=O)N2CCOCC2)[C@@]2(C)c3[nH]c4cc(CCC(=O)N(C)C)ccc4c3CCN2C1=O ?
HIV Env fusion: -9; Yeast UUG start: 4; MT1-MMP act inh: -1; MT1-MMP act inh RFP: -9

Results for C[C@@H]1[C@H]2[C@@H](O[C@@H]3O[C@H](CO)[C@@H](O)[C@H](O)[C@H]3O)OC=C(C(=O)O)[C@H]2C[C@@H]1O ?
CSC inhib: -5; Rce1 inh: inactive; Yeast UUG start: -11; MT1-MMP act inh: 2; MT1-MMP act inh RFP: 5

What do the screens show for `O=C(NCCCN1CCOCC1)c1ccc(Cl)s1`?
CSC inhib: -9; PABP FP inh: 0; Rce1 inh: inactive; HIV Env fusion: -31; Yeast UUG start: -11; eIF4H FP inh: 0; MT1-MMP act inh: -4; MT1-MMP act inh RFP: 1

How did CCOP(=O)(OCC)C(NC(=O)c1ccc(OC)cc1)c1ccccc1 (configuration not stated) do in these assays?
CSC inhib: -7; PABP FP inh: -13; Rce1 inh: inactive; HIV Env fusion: 10; eIF4H FP inh: 5; MT1-MMP act inh: 4; MT1-MMP act inh RFP: 4

Results for N#C/C(=C\c1ccc(O)c(Br)c1)C(=O)N1CCCCC1 ?
CSC inhib: 2; PABP FP inh: 1; Rce1 inh: inactive; HIV Env fusion: -82; Yeast UUG start: -38; eIF4H FP inh: -7; MT1-MMP act inh: 1; MT1-MMP act inh RFP: 1

What do the screens show for `CCn1c(SCC(=O)NCc2ccc3c(c2)OCO3)nnc1-c1ccncc1`?
CSC inhib: -12; PABP FP inh: -6; Rce1 inh: inactive; HIV Env fusion: 0; Yeast UUG start: -21; eIF4H FP inh: 8; MT1-MMP act inh: -6; MT1-MMP act inh RFP: 0

What do the screens show for `COc1ccc(-n2c(=O)c3c4c(sc3n(CC(=O)Nc3cc(C)[nH]n3)c2=O)CCCC4)c(OC)c1`?
CSC inhib: 2; PABP FP inh: -2; Rce1 inh: inactive; HIV Env fusion: -4; Yeast UUG start: -15; eIF4H FP inh: -12; MT1-MMP act inh: -1; MT1-MMP act inh RFP: 0

Results for CCN=c1scc(-c2ccc3c(c2)NC(=O)CO3)n1N=C1CCCC1 ?
CSC inhib: 0; PABP FP inh: -1; Rce1 inh: inactive; HIV Env fusion: 47; Yeast UUG start: -11&-14; eIF4H FP inh: -13; MT1-MMP act inh: 0&-14; MT1-MMP act inh RFP: -28&-23

What do the screens show for `Cc1ccc(S(=O)(=O)N2C[C@@H](C)[C@]3(C2)[C@H](O)[C@H](OC(=O)NC2CC2)C[C@H]2C(=O)N(c4ccccc4)C(=O)[C@H]23)cc1`?
HIV Env fusion: -58; Yeast UUG start: 26; MT1-MMP act inh: -2; MT1-MMP act inh RFP: 2

Results for O=C(NC1CCN(Cc2ccccc2)CC1)c1ccccc1OCc1ccccc1 ?
CSC inhib: 4; PABP FP inh: 3; Rce1 inh: inactive; HIV Env fusion: -13; Yeast UUG start: -1; eIF4H FP inh: 0; MT1-MMP act inh: -4; MT1-MMP act inh RFP: -4

What do the screens show for `O=C(NCc1ccc(Cl)cc1Cl)Nc1nc([C@@H]2O[C@H](CO)[C@@H](O)[C@H](O)[C@H]2O)cs1`?
HIV Env fusion: -18; Yeast UUG start: -26; MT1-MMP act inh: -2; MT1-MMP act inh RFP: 3

What do the screens show for `COc1ccccc1NC(=O)c1ccc(-n2cccn2)c([N+](=O)[O-])c1`?
CSC inhib: 9; PABP FP inh: 4; Rce1 inh: inactive; HIV Env fusion: -7; eIF4H FP inh: 0; MT1-MMP act inh: 3; MT1-MMP act inh RFP: -1

How did CCCN1CCN(CCCNC(=O)c2ccc3c(=O)n(CCc4ccccc4)c(=O)[nH]c3c2)CC1 do in these assays?
PABP FP inh: -1; Rce1 inh: inactive; HIV Env fusion: inconclusive; Yeast UUG start: 2; eIF4H FP inh: -12; MT1-MMP act inh: 1; MT1-MMP act inh RFP: -3

What do the screens show for `CC(C)(C)C(O)C(Cc1ccccc1Cl)n1cncn1` (configuration not stated)?
CSC inhib: -8; PABP FP inh: -7; Rce1 inh: inactive; HIV Env fusion: 2; Yeast UUG start: -18; eIF4H FP inh: 1; MT1-MMP act inh: -4; MT1-MMP act inh RFP: -1

What do the screens show for `CCN1CCN(c2cc(C)c3cc(NC(=S)NCCN(C)C)ccc3n2)CC1`?
CSC inhib: -5; PABP FP inh: 32; Rce1 inh: inactive; HIV Env fusion: -14; Yeast UUG start: -13; eIF4H FP inh: -8

Results for C=CCOc1cccc(CNCc2ccncc2)c1 ?
PABP FP inh: 6; Rce1 inh: inactive; HIV Env fusion: 4; Yeast UUG start: -11; eIF4H FP inh: -3; MT1-MMP act inh: 2; MT1-MMP act inh RFP: -3

How did COc1ccc(CCNC(=O)C2CC(=O)N(CCc3ccccc3)C2)cc1OC (configuration not stated) do in these assays?
CSC inhib: -5; PABP FP inh: 14; Rce1 inh: inactive; HIV Env fusion: 4; Yeast UUG start: -2; eIF4H FP inh: -6; MT1-MMP act inh: -1; MT1-MMP act inh RFP: -1

How did CCCn1ncc(CN2CCN(CCc3ccccc3)C(CCO)C2)c1C (configuration not stated) do in these assays?
CSC inhib: 37; PABP FP inh: 1; Rce1 inh: inactive; HIV Env fusion: 7; eIF4H FP inh: -3; MT1-MMP act inh: 4; MT1-MMP act inh RFP: 4

How did CN1OC[C@@H]2CN(C(=O)Cc3ccccc3)[C@H](c3ccccc3Br)C[C@@H]21 do in these assays?
HIV Env fusion: 32; Yeast UUG start: 4; MT1-MMP act inh: 5; MT1-MMP act inh RFP: -1

What do the screens show for `CCCNS(=O)(=O)c1ccc(OCC(=O)NCc2ccco2)cc1`?
CSC inhib: 14; PABP FP inh: 0; Rce1 inh: inactive; HIV Env fusion: -16; Yeast UUG start: -5; eIF4H FP inh: -2; MT1-MMP act inh: -1; MT1-MMP act inh RFP: 5

What do the screens show for `O=C(CCCc1nc2ccccc2s1)N1CCN(c2ccccc2F)CC1`?
CSC inhib: -10; PABP FP inh: -30; Rce1 inh: inactive; HIV Env fusion: 12; eIF4H FP inh: -3; MT1-MMP act inh: 5; MT1-MMP act inh RFP: 3

What do the screens show for `COc1ccc2c(c1)c(C(C)=O)c(C)n2CCc1ccccc1`?
CSC inhib: -7; PABP FP inh: -9; Rce1 inh: inactive; HIV Env fusion: 24; Yeast UUG start: -6; eIF4H FP inh: 5; MT1-MMP act inh: -7; MT1-MMP act inh RFP: -30

How did CC(=O)Nc1c2c(nn1-c1ccc(C)cc1)CSC2 do in these assays?
CSC inhib: -4; PABP FP inh: -6; Rce1 inh: inactive; HIV Env fusion: -15; Yeast UUG start: -11; eIF4H FP inh: -13; MT1-MMP act inh: -2; MT1-MMP act inh RFP: 1

What do the screens show for `COC(=O)c1c(NC(=O)Cc2ccccc2)sc2c1CC(C)(C)NC2(C)C`?
CSC inhib: -6; PABP FP inh: -8; Rce1 inh: inactive; HIV Env fusion: 16; Yeast UUG start: -3; eIF4H FP inh: -4; MT1-MMP act inh: -4; MT1-MMP act inh RFP: 1

Of the compounds above, two contain a nitro group on carbon.
What do the screens show for `O=C(Nc1cc(Sc2nc3ccccc3s2)cc([N+](=O)[O-])c1)c1cccc(F)c1F`?
CSC inhib: 48; PABP FP inh: 5; Rce1 inh: inactive; Yeast UUG start: -11; eIF4H FP inh: -3; MT1-MMP act inh: 1; MT1-MMP act inh RFP: -7

What do the screens show for `COc1ccccc1NC(=O)c1ccc(-n2cccn2)c([N+](=O)[O-])c1`?
CSC inhib: 9; PABP FP inh: 4; Rce1 inh: inactive; HIV Env fusion: -7; eIF4H FP inh: 0; MT1-MMP act inh: 3; MT1-MMP act inh RFP: -1

Of the compounds above, two have a furan ring, fused or not.
How did Cc1nc(SCc2nc3ccc(C(=O)c4ccccc4)cc3[nH]2)c2oc3ccccc3c2n1 do in these assays?
HIV Env fusion: -28; Yeast UUG start: -16; MT1-MMP act inh: -1; MT1-MMP act inh RFP: -5

What do the screens show for `CCCNS(=O)(=O)c1ccc(OCC(=O)NCc2ccco2)cc1`?
CSC inhib: 14; PABP FP inh: 0; Rce1 inh: inactive; HIV Env fusion: -16; Yeast UUG start: -5; eIF4H FP inh: -2; MT1-MMP act inh: -1; MT1-MMP act inh RFP: 5

These rows are one share of the data, so the mix of outcomes need not match the whole.
